Screening results deposited in PubChem BioAssay by National Center for Advancing Translational Sciences (NCATS).
2A StopGo: lowers the luciferase signal of an FMDV 2A StopGo reporter | 410,000 tested, 1.2% active | Potency, µM (top dose mostly 57.9 µM), for the others: at the highest dose signal change, negative = less light | AID 1159524 | human cells with a luciferase reporter of 2A StopGo recoding; control for the full effect not named in the record; active = well fitted falling curve with a large enough effect; inconclusive = small, poorly fitted or top-dose-only effect; inactive = no such curve, though single readings can be large or run the other way; tested in HEK293T cells; further: on the % scale 0 is the no-effect control and ±100 the full control effect; nearly all actives have a fitted effect of over 45% in size; luciferase light after 4 h
NS1 inh: inhibitors of influenza NS1 protein function. Potency, µM (highest dose often 46.1 µM), without a hit: at the top dose activity, positive = more growth. 270,000 tested, 0.4% active. S. cerevisiae slowed by influenza A NS1, growth recovery by OD600; active means well fitted rising curve with a large enough effect; inconclusive means small, poorly fitted or top-dose-only effect; inactive means no such curve, though single readings can be large or run the other way; further: nearly all actives have a fitted effect of over 50% in size
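A cell-based growth assay was used: compounds that relieve NS1-induced slow growth of budding yeast raise OD600. Assay medium was yeast nitrogen base with ammonium sulphate and -URA supplement, pH 6.0, with 2% galactose.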
Cruzain Triton: blocks cruzain activity in presence of Triton detergent; P25779; purified cruzain, Z-FR-AMC fluorescence, 0.01% Triton; Potency, µM, for inactives: max response, negative = inhibition, hits mostly inhibitors; 200,000 tested, 0.43% active;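 further: plate controls were neutral wells for no effect and buffer without enzyme for full effect; nearly all actives have a fitted effect of over 40% in size; top concentration of the series not given in the record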
Target sequence (P25779 123-467 limits assumed): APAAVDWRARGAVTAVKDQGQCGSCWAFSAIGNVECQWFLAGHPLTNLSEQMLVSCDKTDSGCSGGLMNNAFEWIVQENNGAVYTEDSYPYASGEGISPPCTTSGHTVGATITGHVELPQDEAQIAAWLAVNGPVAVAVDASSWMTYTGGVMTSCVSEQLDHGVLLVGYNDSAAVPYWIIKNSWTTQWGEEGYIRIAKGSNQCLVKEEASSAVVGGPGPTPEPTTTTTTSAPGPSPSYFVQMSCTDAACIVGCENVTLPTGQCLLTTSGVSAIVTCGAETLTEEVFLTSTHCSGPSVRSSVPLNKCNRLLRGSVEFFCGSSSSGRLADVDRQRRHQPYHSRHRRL
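15 min RT preincubation of 1.5 nM cruzain with compound, then 2 uM Z-FR-AMC added; kinetic AMC fluorescence, 60 s delta. Triton X-100 0.01%, pH 5.5.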
Cruzain inh noDet: cruzain (T. cruzi) inhibition without detergent. P25779. Potency, µM, for inactives: max response, negative = inhibition, actives largely listed as inhibitors. purified cruzain, Z-FR-AMC fluorescence, no detergent. 200,000 tested, 2.3% active;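 further: plate controls were enzyme without inhibitor for no effect and buffer without enzyme for full effect; nearly all actives have a fitted effect of over 40% in size; top concentration of the series not given in the record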
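Purified cruzain at 1.5 nM, pre-incubated 15 min with compound at room temperature in 100 mM sodium acetate pH 5.5, 5 mM DTT, 0.00005% Triton X-100. Reaction started with 2 uM Z-FR-AMC; AMC fluorescence increase over 60 s gives rate.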
SARS PLP yeast: SARS-CoV PLP inhibition in yeast. AID 485353. S. cerevisiae expressing SARS-CoV PLpro, growth rescue; control for the full effect not named in the record. 330,000 tested, 0.19% active. Potency, µM (top dose mostly 32.9 µM), for inactives: at the highest dose activity, positive = growth rescue; active means well fitted rising curve with a large enough effect; inconclusive means small, poorly fitted or top-dose-only effect; inactive means no such curve, though single readings can be large or run the other way; further: 0% is about no effect; nearly all actives have a fitted effect of over 55% in size; growth read by luminescence after 48 h
MARV entry inh: blocks Marburg virus binding to or entry into cells; AID 540276; Potency, µM (doses to about 37.8 µM), without a hit: at the top dose activity change, negative = inhibition, hits mostly inhibitors; Marburg virus pseudotyped entry inhibition, cell reporter; control for the full effect not named in the record; about a third of the inactives were read at about 46 µM; 300,000 tested, 1.8% active; active = well fitted inhibition curve with a large enough effect; inconclusive = small, poorly fitted or top-dose-only effect, or effect the other way; inactive = flat fitted curve, though single readings scatter; tested in HEK293 cells; about a fifth of its hits are not listed in these tables; further: on the % scale 0 is the no-effect control and ±100 the full control effect; luciferase read-out
RE007 growth inh: less growth of the S. pombe RE007 Vpr strain | S. pombe RE007 Vpr strain, BacTiter-Glo ATP luminescence, 24 h; control for the full effect not named in the record | Potency, µM (doses to about 92.2 µM), without a hit: top-dose activity change, negative = less growth | 360,000 tested, 0.21% active; active = well fitted falling curve with a large enough effect; inconclusive = small, poorly fitted or top-dose-only effect; inactive = no such curve, though single readings can be large or run the other way;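 further: on the % scale 0 is the no-effect control and ±100 the full control effect; nearly all actives have a fitted effect of over 50% in size; the assay follows cell death caused by Vpr and the record does not say whether a fall means rescue or toxicity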
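Fission yeast strain RE007, carrying one chromosomally integrated HIV-1 vpr copy, was seeded at OD 0.01 in PMG+AL medium with 23 nL pinned compound. After 24 h at 30 °C and 99% humidity, viability was read by BacTiter-Glo luminescence.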
Lassa entry inh: inhibitors of Lassa virus binding or cell entry. Potency, µM (titrated, usually from 37.9 µM), for inactives: at the top dose activity change, negative = inhibition, most hits filed as inhibitors. 300,000 tested, 1.2% active. Lassa virus pseudotype entry inhibition, cell reporter; control for the full effect not named in the record. AID 540256; active means well fitted inhibition curve with a large enough effect; inconclusive means small, poorly fitted or top-dose-only effect, or effect the other way; inactive means flat fitted curve, though single readings scatter; tested in HEK293 cells; further: on the % scale 0 is the no-effect control and ±100 the full control effect; nearly all actives have a fitted effect of over 50% in size; luciferase read-out
* = called active by the depositor; ? = inconclusive; . = not tested or not shown; & = joins results of further samples; [ ] = dose if it differs, or a comment. Unless noted, the call rests on the fitted dose curve; in most records, active means well fitted curve in the direction sought with a large enough effect; inconclusive means small, poorly fitted or top-dose-only effect, or another doubt; inactive means no such curve, though single readings can be large; an effect the other way counts as inactive or inconclusive. Potency means the concentration at half of the fitted maximal effect.

SMILES	2A StopGo	NS1 inh	Cruzain Triton	Cruzain inh noDet	SARS PLP yeast	MARV entry inh	RE007 growth inh	Lassa entry inh
CCSc1nn(CC(=O)Nc2ccc(C(=O)OC)cc2)c(N)c1S(=O)(=O)c1ccc(C)cc1	4%	.	-4.5%	-7%	.	.	.	?
CC1(C)CC2(CC(c3ccccc3F)c3ccc(O)c(O)c3O2)NC(=S)N1 (stereo unspecified)	-18%	8%	.	.	1%	-3%[46.1 µM]	-16%	?
CCOc1ccc(CNC(=O)C2CC(=O)N(C3CCCC3)C2)cc1OC (stereo unspecified)	.	-13%	-3.2%	4%	-10%	-16%	11%	?
CC1(C)CC(=O)C(C(O)c2ccccc2)C(C)(C)N1 (stereo unspecified)	-5%	23%	.	.	0%	.	-3%	.
Cc1ccc(C)c2[nH]c(=O)c(CCNC(=O)c3ccc(S(=O)(=O)N4CCCC4)cc3)cc12	?	9%	.	.	1%	.	-1%	.
Cc1onc(-c2c(F)cccc2Cl)c1C(=O)Nc1nc2c(s1)CCCC2	?	1%	-9.9%	-30%	1%	4%	4%	-21%
O=C(Nc1ccc(-c2cn3ccsc3n2)cc1)c1ccc(F)c(S(=O)(=O)N2CCOCC2)c1	?	-10%	-0.3%	-11%	-3%	1%&-30%	0%	-15%
Cc1ccc(C)c(-n2c(-c3csc(C)c3)n[nH]c2=S)c1	-2%	-3%	-5.7%	-2%	9%	16%	-5%	-17%
CCOC(=O)C1CCN(S(=O)(=O)c2ccc3[nH]c(=O)c(=O)[nH]c3c2)CC1	-6%	.	.	.	-2%	2%[46.1 µM]	5%	-3%
Cn1c(CO)nc2cc(N)ccc21	15%	1%	5.3%	0%	3%	22%	8%	6%
CC(C)c1ccc(NS(=O)(=O)c2ccc(N3C(=O)CCC3=O)cc2)cc1	-8%	2%	.	.	-1%	?	-2%	0%[46.1 µM]
CC(C)CN1CC(=O)N2C(c3ccccc3)c3[nH]c4ccccc4c3C[C@H]2C1=O (stereo partly specified)	6%	12%	.	.	-1%	.	-2%	.
N#Cc1c(C(F)(F)F)cc(-c2ccccc2)n(N)c1=O	-11%	-2%	.	.	-1%	-1%[46.1 µM]	4%	28%[46.1 µM]
NC(=S)c1ncc(C(F)(F)F)cc1Cl	-8%	-1%	.	.	1%	16%	19%	0%
COc1ccc(-n2c(=O)c3ccccc3n(CC(=O)NCC3CCCO3)c2=O)cc1 (stereo unspecified)	17%	-2%	.	.	-1%	1%[46.1 µM]	-2%	-1%
Cc1ccc(C(=O)N2CC(=O)Nc3ccccc32)o1	-12%	11%	-1.5%	-11%	-7%	3%	-5%	3%
COc1ccc(C(=S)N2CCCC2)cc1OC	9%	0%	2.3%	-4%	6%	?	-2%	?
CCOc1ccc(OCC)c(NC(=O)CSc2nnc(C3CC3)n2CC)c1	-6%	2%	.	.	2%	?	0%	6%[46.1 µM]
O=C(CN1C(=O)c2ccccc2C1=O)NCc1ccc(N2CCOCC2)cc1	13%	3%	.	.	-2%	.	-7%	.
CCC1(C)COC(c2ccc3c(c2)OCO3)OC1 (stereo unspecified)	68%[activator]	.	.	.	.	-8%	-9%	6%
COc1cccc(CC(=O)Nc2ccc(S(=O)(=O)Nc3nccs3)cc2)c1	27%	.	.	.	2%	1%	-25%	-20%
O=C(CCN1C(=O)C2C3CCC(C3)C2C1=O)OCC(=O)c1ccccc1 (stereo unspecified)	0%	-40%	.	.	1%	.	3%	.
COc1cc(/C=N\NC(=O)c2ccc(-c3ccccc3)cc2)cc(OC)c1OC(C)=O	-10%	3%	.	.	2%	9%[46.1 µM]	1%	?
c1ccc(CNc2ncnc3sc4c(c23)CCC4)nc1	?	-17%	1.5%	-3%	5%	15%	-19%	-3%
O=C(NCCOc1ccccc1)C1=CC=CN2CCS(=O)(=O)N=C12	22%	.	.	.	-7%	-9%	0%	24%

The results go on:
SMILES	2A StopGo	NS1 inh	Cruzain Triton	Cruzain inh noDet	SARS PLP yeast	MARV entry inh	RE007 growth inh	Lassa entry inh
CCOC(=O)C1=C(c2ccccc2)Nc2ncnn2C1c1ccc(Cl)cc1 (stereo unspecified)	-12%	.	-3.5%	0%	.	4%[46.1 µM]	.	2%[46.1 µM]
Cc1cccc(-n2nc3c(c2NC(=O)C(C)C)CS(=O)(=O)C3)c1C	-14%	1%	.	.	-3%	.	8%	.
O=C(O)Cc1sc(-c2ccc(Cl)cc2)nc1-c1ccccc1	-2%	-93%	-3.3%	-16%	5%	6%	-8%	3%
C=CCNC(=O)CSc1nc2scc(-c3ccco3)c2c(=O)n1CC=C	-15%	-8%	.	.	-1%	-2%[46.1 µM]	17%	?
COCCn1nnnc1C(c1cc2ccc(C)cc2[nH]c1=O)N(Cc1ccco1)Cc1cccs1 (stereo unspecified)	17%	3%	-11%	?	3%	?	2%	5%
CCN(C(=O)COC(=O)CCOc1cccc(C)c1)c1c(N)n(Cc2ccccc2)c(=O)[nH]c1=O	-15%	.	.	.	-2%	4%	15%	22%
CC1CCCCC12NC(=O)N(CC(=O)Nc1sc3c(c1C(N)=O)CCC3)C2=O (stereo unspecified)	0%	15%	-22%	8%	19%	12%[46.1 µM]	0%	8%
CCCCN(C(=O)C1=COCCO1)c1c(N)n(Cc2ccccc2)c(=O)[nH]c1=O	2%	.	.	.	-1%	?	-18%	18%
CN(Cc1ccccc1)C(=O)C1CCN(S(=O)(=O)c2ccc3nc4c(c(C(=O)O)c3c2)CCCC4)CC1	-9%&-5%	18%	-14%	?	2%	-13%[46.1 µM]	5%	.
Cn1c(=O)c2c(nc(CN3CCN(C(=O)c4ccco4)CC3)n2Cc2ccccc2)n(C)c1=O	-24%	-3%	0.3%	10%	?	3%	-1%	4%
O=C(CSc1nc2ccccc2s1)c1ccc(O)cc1O	12%	-38%	.	.	-4%	.	-13%	.
O=C(NCCc1c[nH]c2ccccc12)C(=O)NCC1OCCN1S(=O)(=O)c1cc(F)ccc1F (stereo unspecified)	?	-36%	.	.	1%	.	35%	.
CCCCCCC(=O)N(O)C1CC(=O)N(c2ccc(F)cc2)C1=O (stereo unspecified)	-17%	-84%	.	.	-6%	-23%	6.3µM*	-14%
Nc1nc2c(ncn2-c2ccccc2)c(=O)[nH]1	-3%	.	.	.	.	0%	13%	0%
Cc1cc(OC(C)C(=O)NCC(O)c2ccccc2)c2c3c(c(=O)oc2c1)CCC3 (stereo unspecified)	14%	4%	.	.	-10%	.	-1%	.
CCc1n[nH]c(=S)n1/N=C/c1ccccn1	-9%	-9%	.	.	1%	-18%	-17%	-1%
c1ccc2c(c1)nnn2CNc1nccs1	2%	13%	-0.8%	26%	?	-6%	-3%	?
COc1ccc(NC(=O)C2CCCN(C(=O)Nc3cccc(OC)c3)C2)cc1 (stereo unspecified)	2%	-8%	.	.	-1%	-8%[46.1 µM]	6%	-17%[46.1 µM]
C/C(=N\Nc1ccc([N+](=O)[O-])cc1)c1cc2ccccc2o1	7%	4%	.	.	-1%	-2%[46.1 µM]	-11%	2%
O=C1c2ccccc2C(O)(c2ncc[nH]2)N1C1CCCCC1 (stereo unspecified)	-15%	2%	-0.6%	5%	-8%	-6%	-4%	12%
CN(C)c1ccc(NC(=O)CN2C(=O)CN=C(c3ccccc3)c3cc(Cl)ccc32)cc1	-23%	-1%	-3.1%	-8%	6%	0%	-1%	.
Cc1c(Cl)cccc1NC(=O)CSC(N)=O	-19%	8%	.	.	0%	?	-7%	-5%[46.1 µM]
Cc1nn(C)c2c1c(C(F)(F)F)cc(=O)n2CC(=O)Nc1ccc(F)cc1F	-14%	.	7.4%	-3%	.	.	.	14%[46.1 µM]
O=C1c2ccccc2C(=O)N1CCC(=O)N1CCc2ccccc21	3%	.	.	.	.	10%&0%	-5%	15%
Cc1ccc(O)c(NC(=O)Cc2ccc3ccccc3c2)c1	8%	-35%	.	.	-9%	?	-20%	-2%

Carrying on.
SMILES	2A StopGo	NS1 inh	Cruzain Triton	Cruzain inh noDet	SARS PLP yeast	MARV entry inh	RE007 growth inh	Lassa entry inh
Cc1ccc(NC(=O)c2ccncc2)cc1S(=O)(=O)N(C)C	-3%	3%	0.8%	-4%	1%	-16%	3%	-24%
CCCCCCN=C(C)C1=C(O)C(C(=O)OC)C(C)(C)CC1=O (stereo unspecified)	-7%	-2%	-4.6%	5%	-5%	-7%	3%	-19%
CCN(CC)C(=O)C(=O)N/N=C/c1ccc(Cl)cc1Cl	66%[activator]	.	.	.	-6%	6%[46.1 µM]	7%	-16%
O=C(CSc1ccccc1)Nc1ccc(C(=O)Nc2cccc(O)c2)cc1	31%[activator]	5%	.	.	0%	2%	-6%	4%
O=C(Nc1ccc2c(c1)OCCO2)c1ccc(Br)c(S(=O)(=O)N2CCOCC2)c1	18µM*	7%	-20%	-1%	1%	?	27%	?
Cc1cc(C)cc(N(C(=O)c2csnn2)C(C(=O)NC(C)(C)C)c2ccccn2)c1 (stereo unspecified)	-3%	5%	.	.	0%	.	5%	.
O=C(Nc1cccc(Br)c1)C1CC(=O)N(C2CCCC2)C1 (stereo unspecified)	5%	.	.	.	.	11%[46.1 µM]	3%	-6%
Cc1sc2ncn(CCn3cnc4sc(C)c(C)c4c3=O)c(=O)c2c1C	20µM*	-61%	-0.1%	?	1%	?	12%	-15%
COc1ccc(S(=O)(=O)N2CCOC2CNC(=O)C(=O)NCc2ccc(F)cc2)cc1OC (stereo unspecified)	-3%	-3%	.	.	-2%	?	9%	12%
COc1ccccc1NC(=S)NCCc1ccc(Cl)cc1	3%	-16%	-7.1%	-3%	-8%	1%	?	21%
CC(=O)N1CCc2cc(S(=O)(=O)CCC(=O)NCc3ccc(F)cc3)ccc21	-23%	3%	.	.	17%	.	-6%	.
O=C(NCC1CCCO1)c1ccccc1NS(=O)(=O)c1ccc(F)cc1 (stereo unspecified)	-5%	.	.	.	5%	5%	-15%	7%
CC12CC(NC(=O)N1CCc1ccccc1)c1cc(Cl)ccc1O2 (stereo unspecified)	?	-6%	-8.2%	-6%	8%	?	0%	-14%
